PINK1 modulator = A Quantitative High throughput Screen to Identify Chemical Modulators of PINK1 Expression; PINK1 immunofluorescence, high-content cytometry, 24 h; Potency, µM (series often up to 76.6 µM), inactives show at the highest dose activation (PINK1 increase), most hits filed as activators; 0.2% of 410,000 active; active = well fitted activation curve with a large enough effect; inconclusive = small, poorly fitted or top-dose-only effect; inactive = flat fitted curve, though single readings scatter; cell line not stated here;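 further: potency means the concentration at half of the fitted maximal effect; % of control where 0% means no effect; nearly all actives have a fitted effect of over 65% in size; a mitochondrial uncoupler was the plate control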
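A stable cell line was treated with compounds at 5 concentrations for 24 hours, with CCCP as control. PINK1 levels and mitochondrial localization were measured by immunofluorescence with mitochondrial, cell and nuclear markers after fixation, read by laser-scanning cytometry.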
TRPML1 inh = qHTS for Inhibitors of the Human Mucolipin Transient Receptor Potential 1 (TRPML1); Mucolipin-1 (Homo sapiens), Q9GZU1; TRPML1-inducible cells, Ca2+ dye fluorescence, FDSS; hits give low values; inhibition of EC80 agonist-evoked calcium signal; activity change, negative = inhibition, % (no concentration beside the values); 0.02% of 390,000 active; AID 624415, 2012; in the data active means activity change below about -50%; inconclusive means about -30% to -50%; inactive means above about -30%;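 further: stimulus is agonist 54-4 at its EC80 concentration; on the % scale 0 is the no-effect control and ±100 the full control effect; compound concentration not given in the record; the text of the record puts the active cut at -80%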
Target sequence (Q9GZU1 whole entry, looked up): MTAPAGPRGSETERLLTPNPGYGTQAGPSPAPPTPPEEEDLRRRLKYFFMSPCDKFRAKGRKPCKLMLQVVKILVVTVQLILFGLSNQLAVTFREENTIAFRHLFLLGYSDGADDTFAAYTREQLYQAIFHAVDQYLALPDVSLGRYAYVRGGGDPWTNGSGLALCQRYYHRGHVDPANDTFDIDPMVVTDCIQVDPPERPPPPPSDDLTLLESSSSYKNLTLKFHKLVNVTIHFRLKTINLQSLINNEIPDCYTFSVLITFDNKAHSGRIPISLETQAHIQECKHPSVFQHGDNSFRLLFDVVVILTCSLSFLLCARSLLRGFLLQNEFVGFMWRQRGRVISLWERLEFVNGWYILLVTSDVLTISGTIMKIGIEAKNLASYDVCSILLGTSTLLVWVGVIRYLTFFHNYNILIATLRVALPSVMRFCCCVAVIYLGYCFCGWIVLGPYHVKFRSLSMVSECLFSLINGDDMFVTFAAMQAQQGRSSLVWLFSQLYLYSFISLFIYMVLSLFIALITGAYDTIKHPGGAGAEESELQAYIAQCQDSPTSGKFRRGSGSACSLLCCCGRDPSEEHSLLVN
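Tet-induced TRPML1-DL cells loaded with Ca8 no-wash calcium dye were read kinetically on FDSS. Compound addition was followed by EC80 agonist 54-4 (4 uM final); inhibition was read over 110 s.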
Six1-Eya2 inh = qHTS Assay for Inhibitors of the Six1/Eya2 Interaction | Homeobox protein SIX1 (Homo sapiens) + Protein phosphatase EYA2 (Homo sapiens), … | AlphaScreen GST-Six1/His-Eya2 binding, biochemical; hits give low values; control for the full effect not named in the record | activity change, % (test concentration not listed) | 0.56% of 360,000 active | AID 651725, 2012; in the data active = activity change below about -65%; inconclusive = about -30% to -65%; inactive = above about -30%; further: on the % scale 0 is the no-effect control and ±100 the full control effect; compound concentration not given in the record
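AlphaScreen with GST-Six1 and His-Eya2 (5X mix: 250 nM and 500 nM), glutathione donor and nickel acceptor beads; buffer 50 mM Tris pH 8.0, 300 mM NaCl, 1 mM TCEP; 1 h at 37 C in the dark.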
D2 ag = Beta-Arrestin HTS for Positive Allosteric Modulators of the Human D2 Dopamine Receptor: Agonists | D(2) dopamine receptor (Homo sapiens), P14416 | DiscoveRx PathHunter D2 beta-arrestin, luminescence, 90 min; 100% = 57 uM dopamine signal | activation, % (test concentration not listed) | 0.084% of 360,000 active; in the data active = activation above about 40%; inconclusive = about 15% to 40%; inactive = below about 15%; further: compound concentration not given in the record; the text of the record calls up to 30% inactive
Target sequence (P14416 whole entry, looked up): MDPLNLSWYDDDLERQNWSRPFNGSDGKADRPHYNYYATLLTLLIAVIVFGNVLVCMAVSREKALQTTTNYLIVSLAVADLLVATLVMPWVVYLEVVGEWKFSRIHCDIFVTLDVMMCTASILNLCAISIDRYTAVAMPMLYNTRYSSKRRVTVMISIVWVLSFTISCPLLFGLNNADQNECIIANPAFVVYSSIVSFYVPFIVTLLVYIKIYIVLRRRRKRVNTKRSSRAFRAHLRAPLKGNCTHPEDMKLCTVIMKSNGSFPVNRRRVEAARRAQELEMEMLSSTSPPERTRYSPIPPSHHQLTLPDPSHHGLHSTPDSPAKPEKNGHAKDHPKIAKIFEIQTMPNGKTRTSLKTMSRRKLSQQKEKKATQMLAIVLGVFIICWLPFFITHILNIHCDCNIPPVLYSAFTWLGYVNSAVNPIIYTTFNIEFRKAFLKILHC
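DiscoveRx PathHunter D2 beta-arrestin cells (2,100/well) attached overnight, then compound-stimulated 90 min at 37 C in HBSS/10 mM HEPES/0.1% Tween-20 buffer; beta-galactosidase complementation read by luminescence after 1 h at ambient temperature. Dopamine 57 uM final (EC100) as control.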
CtBP-E1A inh = qHTS Assay for Inhibitors of the CtBP/E1A Interaction. 0.49% of 340,000 active. AlphaScreen GST-E1A/His-CtBP binding, 1536-well; hits give low values; control for the full effect not named in the record. activity change, % (concentration not given with the values). AID 651724, 2012; in the data active means activity change below about -65%; inconclusive means about -30% to -65%; inactive means above about -30%; further: on the % scale 0 is the no-effect control and ±100 the full control effect
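Homogeneous bead-based format: GST-tagged E1A captured on glutathione donor beads, His-tagged CtBP on nickel acceptor beads; compounds precede bead addition by 2 h at 37 °C.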
TRPML1 ag = qHTS for Agonists of the Human Mucolipin Transient Receptor Potential 1 (TRPML1) | Mucolipin-1 (Homo sapiens), Q9GZU1 | TRPML1-expressing cells, Ca2+ dye fluorescence, FDSS; host cell line not named in the record; reference of the full effect not given here | activation, % (concentration not given with the values) | 0.12% of 410,000 active; in the data active = activation above about 50%; inconclusive = about 30% to 50%; inactive = below about 30%; further: 0% is about no effect; the text of the record puts the active cut at 80%
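Tetracycline-induced TRPML1-DL cells are seeded and incubated overnight before loading with a no-wash Ca2+ dye and quencher. Agonist activity is taken from the 110 s fluorescence read following compound pin-transfer on an FDSS, before EC80 54-4 challenge.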
* hit, by the source's call; [ ] = another dose, or the depositor's remark. Rows are unselected. About 1% of those tested had a hit in this group.

CC(C)(C)OC(=O)N1CCC(c2c(C(=O)N3CCN(c4ccccc4F)CC3)cnn2-c2ccccc2Cl)CC1 was read as PINK1 modulator -0.3%, TRPML1 inh 6 and TRPML1 ag -0.3.
`CCn1c(SC)nnc1-c1c[nH]c2ccccc12` gave PINK1 modulator 0.7%, TRPML1 inh 16, Six1-Eya2 inh 2, D2 ag -4.2, CtBP-E1A inh 2 and TRPML1 ag 0.4.
For O=C(CN1CCC(n2nnc3cc(C(F)(F)F)ccc32)CC1)Nc1ccc2c(c1)CCC2 the results were PINK1 modulator -1.5%, TRPML1 inh 51, Six1-Eya2 inh 3, D2 ag -1.9, CtBP-E1A inh -2 and TRPML1 ag -0.3.
`Cc1cc(C)n(-c2cc(C)c(C)cc2Br)n1` gave PINK1 modulator 0.0%, TRPML1 inh -10, Six1-Eya2 inh 8, D2 ag -2.6, CtBP-E1A inh 5 and TRPML1 ag 16.
`Cc1ccc(S(=O)(=O)c2cc3c(=O)n4ccccc4nc3n(C3CCCCC3)c2=N)cc1` gave PINK1 modulator 2.1%, TRPML1 inh 0, Six1-Eya2 inh -2, D2 ag -5.2, CtBP-E1A inh 3 and TRPML1 ag -0.3.
`CC(O)(CS(=O)(=O)Cc1cccc(C(F)(F)F)c1)C(=O)Nc1cccc(C(F)(F)F)c1` (stereo not drawn) gave PINK1 modulator inconclusive, TRPML1 inh -11, Six1-Eya2 inh 2, D2 ag -1.6, CtBP-E1A inh 5 and TRPML1 ag -0.2.
`CCCN1CCN(CCCNC(=O)c2cnn(-c3ccc(F)cc3)c2-n2cccc2)CC1` gave PINK1 modulator -0.6%, TRPML1 inh 29 and TRPML1 ag 1.9.
For O=C(CCCOC(=O)c1ccc(O)cc1O)c1ccccc1 the results were PINK1 modulator 1.7%, TRPML1 inh -18, Six1-Eya2 inh -2, D2 ag -4.0, CtBP-E1A inh 1 and TRPML1 ag 1.4.
For CC(C)(C)c1ccc(-c2noc(CCC(=O)NCC3CCCO3)n2)cc1 (stereo not drawn) the results were PINK1 modulator 13%[38.3 µM], TRPML1 inh -5, Six1-Eya2 inh -1, D2 ag -1.0, CtBP-E1A inh 11 and TRPML1 ag -0.1.
`Cn1c(=O)c(-c2ccccc2)cc2ccccc21` gave PINK1 modulator 1.9%, TRPML1 inh 19, Six1-Eya2 inh -2, D2 ag 1.4, CtBP-E1A inh 6 and TRPML1 ag 2.5.
`CCOCC(=O)Nc1ccc(-c2cn3c(C)csc3n2)cc1` gave PINK1 modulator -3.7%, TRPML1 inh -1 and TRPML1 ag -0.2.
For COc1ccc(NC(=O)Nc2nnc(-c3cccs3)s2)cc1 the results were PINK1 modulator 3.7%, Six1-Eya2 inh 2, D2 ag 1.0 and CtBP-E1A inh 9.
`Cc1cc2occ(CC(=O)NC3CCCc4ccccc43)c2cc1C` (stereo not drawn) gave PINK1 modulator 0.1%, TRPML1 inh 6, Six1-Eya2 inh 2, D2 ag 5.1, CtBP-E1A inh -2 and TRPML1 ag 1.5.
`CCOc1cc(/C=N/N=C(/N)c2nonc2N)cc(Br)c1OCc1ccc(Cl)cc1` gave PINK1 modulator 11%, TRPML1 inh 11, Six1-Eya2 inh -7, D2 ag 0.1, CtBP-E1A inh -1 and TRPML1 ag -0.2.
O=C(NCC1CCCO1)c1ccc(NC(=O)c2cccc(Br)c2)cc1 (stereo not drawn) was read as PINK1 modulator 5.7%, Six1-Eya2 inh -2 and D2 ag 6.5.
For CC(=O)Nc1ccc(-c2ccnc3c2CC(C)(C(=O)Nc2cccc(C(C)=O)c2)O3)cc1 (stereo not drawn) the results were PINK1 modulator 2.7%, Six1-Eya2 inh -1, D2 ag -3.2, CtBP-E1A inh -5 and TRPML1 ag -0.4.
For N#C/C(=C\c1ccco1)C(=O)Nn1cnnc1 the results were PINK1 modulator -0.5%, TRPML1 inh -7, Six1-Eya2 inh 20, D2 ag -4.0, CtBP-E1A inh -7 and TRPML1 ag 0.1.
Cn1nnc2c(NCc3ccccc3)ncnc21 was read as PINK1 modulator 1.9%, TRPML1 inh -2 and TRPML1 ag 0.5.
`CC12CN3CCN(CC(C3)C1(O)CN1CCCCC1)C2` (stereo not drawn) gave PINK1 modulator -0.2%, TRPML1 inh -5, Six1-Eya2 inh 0, D2 ag -3.3, CtBP-E1A inh 8 and TRPML1 ag -0.7.
O=C1NC[C@H](Cc2ccccc2)N(C[C@H]2CCCN2C[C@H](Cc2ccccc2)N2C[C@H](Cc3ccc(O)cc3)N(CCc3ccccc3)C(=O)C2=O)C1=O was read as PINK1 modulator 3.0%, TRPML1 inh 12, Six1-Eya2 inh -7, D2 ag -1.2, CtBP-E1A inh -1 and TRPML1 ag -0.4.

Sorted by length of the SMILES (largest number first): some entries from above
`Cc1cc2occ(CC(=O)NC3CCCc4ccccc43)c2cc1C` (stereo not drawn) gave PINK1 modulator 0.1%, TRPML1 inh 6, Six1-Eya2 inh 2, D2 ag 5.1, CtBP-E1A inh -2 and TRPML1 ag 1.5.
For O=C(CCCOC(=O)c1ccc(O)cc1O)c1ccccc1 the results were PINK1 modulator 1.7%, TRPML1 inh -18, Six1-Eya2 inh -2, D2 ag -4.0, CtBP-E1A inh 1 and TRPML1 ag 1.4.
`Cn1c(=O)c(-c2ccccc2)cc2ccccc21` gave PINK1 modulator 1.9%, TRPML1 inh 19, Six1-Eya2 inh -2, D2 ag 1.4, CtBP-E1A inh 6 and TRPML1 ag 2.5.

Quoted at random: 3 records from the list.
`CCCN1CCN(CCCNC(=O)c2cnn(-c3ccc(F)cc3)c2-n2cccc2)CC1` gave PINK1 modulator -0.6%, TRPML1 inh 29 and TRPML1 ag 1.9.
`Cn1c(=O)c(-c2ccccc2)cc2ccccc21` gave PINK1 modulator 1.9%, TRPML1 inh 19, Six1-Eya2 inh -2, D2 ag 1.4, CtBP-E1A inh 6 and TRPML1 ag 2.5.
`CC12CN3CCN(CC(C3)C1(O)CN1CCCCC1)C2` (stereo not drawn) gave PINK1 modulator -0.2%, TRPML1 inh -5, Six1-Eya2 inh 0, D2 ag -3.3, CtBP-E1A inh 8 and TRPML1 ag -0.7.

Further results
Screening O=S(CC(O)COCc1ccc(Cl)cc1)c1ccccn1 (stereo not drawn) returned PINK1 modulator inconclusive, TRPML1 inh -8, Six1-Eya2 inh 5, D2 ag -0.9, CtBP-E1A inh -2 and TRPML1 ag 0.4.
For NC(=O)CC(NC(=O)c1ccc(Br)cc1)c1ccc(NCCc2ccc(F)cc2)c([N+](=O)[O-])c1 (stereo not drawn) the results were PINK1 modulator 9.2%, TRPML1 inh 16, Six1-Eya2 inh -3, D2 ag -1.8 and TRPML1 ag 0.4.
CSc1nnc(-c2sccc2OCc2ccc(C)cc2)n1C was read as PINK1 modulator inconclusive, TRPML1 inh 3, Six1-Eya2 inh -3, D2 ag -2.0, CtBP-E1A inh 0 and TRPML1 ag -0.7.
`CC(NC(=O)c1ccncc1)c1ccc(Cl)cc1Cl` (stereo not drawn) gave PINK1 modulator 3.0%, TRPML1 inh 0, Six1-Eya2 inh 4, D2 ag -1.6, CtBP-E1A inh 1 and TRPML1 ag -0.7.
Screening O=C(COC(=O)[C@@H]1CCCN1S(=O)(=O)c1ccccc1F)c1ccccc1 returned PINK1 modulator -0.4%, TRPML1 inh 25, Six1-Eya2 inh 4, D2 ag 0.2, CtBP-E1A inh 9 and TRPML1 ag -0.9.
`c1ccc(Oc2ncnc3oc(-c4ccccc4)cc23)cc1` gave PINK1 modulator 21%, TRPML1 inh -3, Six1-Eya2 inh 11, D2 ag 1.7, CtBP-E1A inh 8 and TRPML1 ag 0.8.
Cc1onc(-c2c(Cl)cccc2Cl)c1C(=O)N1CCOCC1 was read as PINK1 modulator 3.0%, TRPML1 inh -4, Six1-Eya2 inh 6, D2 ag -2.9, CtBP-E1A inh -2 and TRPML1 ag -0.6.
`CC(C)COc1cccc(C(=O)N(CC(=O)Nc2ccccc2C(F)(F)F)Cc2ccco2)c1` gave PINK1 modulator 5.0%, TRPML1 inh 13, Six1-Eya2 inh -10, D2 ag -1.1, CtBP-E1A inh -2 and TRPML1 ag 0.3.
For O=C(c1ccc(S(=O)(=O)N2CCOCC2)cc1)N1CCCc2ccccc21 the results were TRPML1 inh -3, Six1-Eya2 inh -1, D2 ag 5.1, CtBP-E1A inh -11 and TRPML1 ag -0.1.
`CCN(C(=O)CSc1nncn1-c1ccccc1)C1CCS(=O)(=O)C1` (stereo not drawn) gave PINK1 modulator 0.6%, TRPML1 inh 0, Six1-Eya2 inh 7, D2 ag -2.0, CtBP-E1A inh -5 and TRPML1 ag -0.2.
`COc1cccc(OCCCN2CCCCC2)c1` gave PINK1 modulator -1.2%[38.3 µM], TRPML1 inh 3, Six1-Eya2 inh 2, D2 ag 0.5, CtBP-E1A inh 5 and TRPML1 ag 0.3.
For O=C(O)CC1(CC(=O)Nc2ccc3sccc3c2)CCCCC1 the results were PINK1 modulator -1.2%, TRPML1 inh -1, Six1-Eya2 inh -6, D2 ag -2.3, CtBP-E1A inh 1 and TRPML1 ag -0.1.
For CCN(CC)CCN(C)C(=O)CCc1nnc(-c2ccc(C)s2)o1 the results were PINK1 modulator -0.6%, TRPML1 inh 7, Six1-Eya2 inh -4, D2 ag 6.2 and TRPML1 ag -0.8.
`O=C(NCCN1CCCCC1)Nc1ccc(Br)cc1` gave PINK1 modulator -0.4%, TRPML1 inh 1, Six1-Eya2 inh 1, D2 ag 3.5, CtBP-E1A inh 8 and TRPML1 ag 0.1.
For Cc1ccc(C(=O)OCc2ccc3c(c2)OCO3)cc1S(=O)(=O)N1CCCCC1 the results were PINK1 modulator -0.2%[38.3 µM], TRPML1 inh 69, Six1-Eya2 inh 5, D2 ag -1.0, CtBP-E1A inh 12 and TRPML1 ag 2.1.
`CC(C)c1ccc(NC(=O)COc2ccc(S(=O)(=O)N3CCOCC3)cc2)cc1` gave PINK1 modulator 3.3%, TRPML1 inh -7, Six1-Eya2 inh 13, D2 ag 0.0, CtBP-E1A inh 0 and TRPML1 ag 1.6.
`Cc1c(N)ccc(-n2nc3ccccc3n2)c1C` gave PINK1 modulator 0.9%, TRPML1 inh 14, Six1-Eya2 inh 10, D2 ag -3.4, CtBP-E1A inh 0 and TRPML1 ag 1.5.
For Cc1ccc(S(=O)(=O)N2CCOCC2)cc1C(=O)O the results were PINK1 modulator inconclusive, TRPML1 inh -5, Six1-Eya2 inh 0, D2 ag 0.8, CtBP-E1A inh 7 and TRPML1 ag -0.5.
Screening O=C(c1ccccn1)N(CC1CCCO1)C1(C(=O)NC2CCCCC2)CCCCC1 (stereo not drawn) returned PINK1 modulator -2.0%, TRPML1 inh -2, Six1-Eya2 inh 3, D2 ag -4.0, CtBP-E1A inh 4 and TRPML1 ag -1.4.
`COc1ccc(C(C)(C)C)cc1NC(=O)COC(=O)C(C)C` gave PINK1 modulator 0.3%, TRPML1 inh 21, Six1-Eya2 inh 9, D2 ag -4.1, CtBP-E1A inh 7 and TRPML1 ag -0.3.
